Assay outcomes from PubChem.
gsp agonist: qHTS for Agonist of gsp, the Etiologic Mutation Responsible for Fibrous Dysplasia/McCune-Albright Syndrome: qHTS. gsp mutant cells, cAMP HTRF, 30 min; control for the full effect not named in the record. Potency, µM (titrated, usually from 76.9 µM), inactives show at the top dose activation (cAMP increase), usual class: activators. 340,000 tested, 0.13% active. AID 624287, 2012; active = well fitted activation curve with a large enough effect; inconclusive = small, poorly fitted or top-dose-only effect, or another doubt; inactive = no such curve, though single readings can be large or run the other way; cell line not stated here;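 further: phosphodiesterase inhibitor Ro 20-1724 added with compounds to block cAMP breakdown; potency means the concentration at half of the fitted maximal effect; nearly all actives have a fitted effect of over 60% in size; about a fifth of the inactives were tested at one dose only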
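Cells in DMEM/10% FBS with G418 were pretreated with compounds in DMSO plus […] (300 uM stock) for 30 min at 37C. cAMP was measured by HTRF (cAMP-d2 plus anti-cAMP antibody-K) after 30 min at room temperature.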
Menin-MLL FL inh: qHTS Assay for Inhibitors Targeting the Menin-MLL Interaction in MLL Related Leukemias: Competition With Fluorescein Labeled MLL-derived Peptide. 290,000 tested, under 10 active. AID 1766, 2009. Fluorescence polarization, fluorescein-MLL peptide displacement from menin. FP activity change, % at 61.4 µM; inconclusive = falling polarisation curve, or a change in total fluorescence; inactive = total fluorescence flat and polarisation flat or rising; no compound was filed as active; the % refers to the polarisation; negative = inhibition;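 further: % of control where 0% means no effect; inhibitors lower the polarisation; unlabelled MLL peptide was the positive control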
Sfp inh: qHTS Assay for Inhibitors of Bacillus subtilis Sfp phosphopantetheinyl transferase (PPTase) | 4'-phosphopantetheinyl transferase ffp (Bacillus subtilis), Q9F4F7 | AID 1490, 2009 | 310,000 tested, 3.5% active | Potency, µM, for the others: max response, negative = inhibition, most hits filed as inhibitors | Biochemical Sfp PPTase activity, qHTS; active means well fitted inhibition curve with a large enough effect; inconclusive means small, poorly fitted or top-dose-only effect, or another doubt; inactive means no such curve, though single readings can be large or run the other way;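 further: the enzyme is Sfp with the accession as filed and its product quenches rhodamine fluorescence; potency means the concentration at half of the fitted maximal effect; 0% = enzyme reaction without inhibitor and -100% = no enzyme wells; top concentration of the series not given in the record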
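Sfp 15 nM + cpd, 15 min RT; start w/ rhodamine-CoA 5 uM, BHQ-2-YbbR 12.5 uM (final); 50 mM Hepes pH 7.6, 10 mM MgCl2, 0.01% NP-40, 0.01% BSA; read 525/598 nm at 0 and 30 min.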
gsp antag: qHTS for Antagonists of gsp, the Etiologic Mutation Responsible for Fibrous Dysplasia/McCune-Albright Syndrome: qHTS; Potency, µM (highest dose often 76.9 µM), inactives show at the top dose activity change, negative = inhibition, most hits filed as inhibitors; 340,000 tested, 0.4% active; gsp-mutant cells, cAMP HTRF, 30 min; control for the full effect not named in the record; active = falling curve of any shape with a large fitted effect; inconclusive = falling curve, mostly with a smaller effect; inactive = flat or rising curve; cell line not stated here;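 further: intracellular cAMP measured with PDE inhibitor Ro 20-1724 present during compound exposure; potency means the concentration at half of the fitted maximal effect; on the % scale 0 is the no-effect control and ±100 the full control effect; nearly all actives have a fitted effect of over 65% in size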
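Cells in G418 medium, seeded 16-24 h, 37C; buffer exchange to DPBS + 1 mM CaCl2, 0.5 mM MgCl2, 0.05% BSA; cpds in DMSO + […] (300 uM stock), 30 min 37C; HTRF cAMP detection.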
TRPV1 PAM: HTS Assay for Compounds that Act as Potentiators of the Vanilloid Receptor 1; potentiation, % at 8.33 µM; AID 540277, 2011; 320,000 tested, 0.02% active; TRPV1-expressing cells, Fluo-8 calcium influx, capsaicin EC20 potentiation; host cell line not named in the record; control for the full effect not named in the record; Transient receptor potential cation channel subfamily V member 1 (Homo sapiens), Q8NER1; active means potentiation above 80%; inconclusive means 30% to 80%; inactive means below 30%; further: 0% is about no effect
Target sequence (Q8NER1 whole entry, looked up): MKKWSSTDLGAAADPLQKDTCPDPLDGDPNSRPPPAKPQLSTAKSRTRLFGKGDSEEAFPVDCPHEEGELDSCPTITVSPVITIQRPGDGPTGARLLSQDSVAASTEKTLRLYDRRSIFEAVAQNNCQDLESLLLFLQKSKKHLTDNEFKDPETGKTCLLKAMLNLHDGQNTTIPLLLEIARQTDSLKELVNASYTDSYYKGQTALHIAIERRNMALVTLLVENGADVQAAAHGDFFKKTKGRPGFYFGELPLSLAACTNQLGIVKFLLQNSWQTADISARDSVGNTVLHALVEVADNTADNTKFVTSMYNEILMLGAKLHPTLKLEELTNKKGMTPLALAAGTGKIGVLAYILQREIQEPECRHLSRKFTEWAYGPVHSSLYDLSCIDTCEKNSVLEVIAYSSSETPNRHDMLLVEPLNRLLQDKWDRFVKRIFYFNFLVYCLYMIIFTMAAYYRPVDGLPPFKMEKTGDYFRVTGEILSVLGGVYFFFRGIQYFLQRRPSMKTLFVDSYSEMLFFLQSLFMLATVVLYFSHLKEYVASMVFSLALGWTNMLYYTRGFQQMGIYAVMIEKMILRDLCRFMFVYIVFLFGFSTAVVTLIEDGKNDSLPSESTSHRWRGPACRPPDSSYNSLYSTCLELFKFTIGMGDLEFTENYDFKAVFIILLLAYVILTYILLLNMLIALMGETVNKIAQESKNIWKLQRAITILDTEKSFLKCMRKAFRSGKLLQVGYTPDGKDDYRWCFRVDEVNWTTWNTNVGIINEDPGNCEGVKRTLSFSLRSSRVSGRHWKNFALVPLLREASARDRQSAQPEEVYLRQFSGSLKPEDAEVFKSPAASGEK
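TRPV1-expressing cells were cultured overnight at 35.5C and loaded with Fluo-8 calcium dye for 40 to 90 min at room temperature. After a 10 s baseline, compound was added and calcium influx was read kinetically for 3 min (ex 480/em 520 nm).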
ClpP mod: qHTS Assay for Activators of ClpP | ATP-dependent Clp protease proteolytic subunit (Bacillus subtilis (strain 168)), P80244 | purified B. subtilis ClpP, FRET peptide cleavage, 20 min | Potency, µM (titrated, usually from 57.5 µM), for the others: at the top dose activity change, negative = active | 340,000 tested, 1.9% active | AID 651965, 2013; active = well fitted falling curve with a large enough effect; inconclusive = small, poorly fitted or top-dose-only effect; inactive = no such curve, though single readings can be large or run the other way; further: potency means the concentration at half of the fitted maximal effect; the source files actives as falling curves though it sought activators and does not explain the sign; nearly all actives have a fitted effect of over 65% in size; many hits overshoot -100%
Target sequence (P80244 whole entry, looked up): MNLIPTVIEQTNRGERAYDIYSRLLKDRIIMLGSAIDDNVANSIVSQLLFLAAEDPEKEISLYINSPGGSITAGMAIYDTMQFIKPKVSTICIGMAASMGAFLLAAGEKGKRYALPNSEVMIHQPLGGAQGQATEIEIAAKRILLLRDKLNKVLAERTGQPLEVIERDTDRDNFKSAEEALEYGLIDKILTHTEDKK
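ClpP 10 microg/mL final, pH 8 Tris/KCl buffer with BSA, glycerol, Tween-20; compound pinned in; FRET-FV substrate; RT 20 min; Ex320/Em430; ΔFRET vs ADEP 5.8 microM, DMSO, no enzyme.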
CtBP-E1A blk: qHTS Assay for Inhibitors of the CtBP/E1A Interaction; CtBP / adenovirus E1A interaction (AlphaScreen); AlphaScreen GST-E1A/His-CtBP binding, 1536-well; hits give low values; control for the full effect not named in the record; activity change, % (concentration not given with the values); 340,000 tested, 0.49% active; in the data active means activity change below about -65%; inconclusive means about -30% to -65%; inactive means above about -30%; further: on the % scale 0 is the no-effect control and ±100 the full control effect
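Protein mix (5X: 125 nM each GST-E1A, His-CtBP) was incubated with pinned compound 2 h at 37 deg C in dark, in 50 mM Tris pH 8.0 buffer with 300 mM NaCl. Glutathione donor and nickel acceptor beads followed; AlphaScreen signal read after 1 h.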
An asterisk follows results filed as active; ? = inconclusive; / = not tested or not shown; & = joins results of further samples; [ ] = another dose, or the depositor's remark.

The opening 3 records as a preview:
#1 COc1ccc(C(=O)N2CC3(CC(c4ccc(Cl)cc4)=NO3)C[C@H]2C(=O)NCC(N)=O)cc1 (stereo not given in full)
#2 CCS(=O)(=O)C1=NSC2=NC(=O)/C(=C\c3ccc(OS(=O)(=O)c4ccccc4)c(OC)c3)C(=N)N21
#3 COc1ccc(-c2nnc3n2-c2ccccc2SC3)cc1OC
Compound,1,2,3
gsp antag,10%,-17%,-10%
gsp agonist,1%,-12%,-10%
TRPV1 PAM,-7,22,2
Sfp inh,14%,-11%,79µM*
ClpP mod,0.1%,-0.3%,1.2%
CtBP-E1A blk,-2,/,2
Menin-MLL FL inh,1.3,23,3.3

Main list (from the top)
#1 COc1ccc(C(=O)N2CC3(CC(c4ccc(Cl)cc4)=NO3)C[C@H]2C(=O)NCC(N)=O)cc1 (stereo not given in full)
#2 CCS(=O)(=O)C1=NSC2=NC(=O)/C(=C\c3ccc(OS(=O)(=O)c4ccccc4)c(OC)c3)C(=N)N21
#3 COc1ccc(-c2nnc3n2-c2ccccc2SC3)cc1OC
#4 O=C(CCC(=O)c1cccs1)NNC(=O)c1ccccc1Cl
#5 COc1ccc(/C=C2\SC(=S)N(CCC(=O)NCCCN3CCOCC3)C2=O)cc1
#6 COc1cccc(C(=O)Nc2c3c(nn2-c2cccc(C)c2C)CS(=O)C3)c1OC (stereo not given)
#7 COc1ccc(OCCOc2ccc(S(=O)(=O)N3CCCC3)cc2[N+](=O)[O-])cc1
#8 Nc1nn(-c2ccccc2)c2ccc([N+](=O)[O-])cc12
Compound,1,2,3,4,5,6,7,8
gsp antag,10%,-17%,-10%,8%,-6%,-23%,5%,-24%
gsp agonist,1%,-12%,-10%,34%,13%[15.4 µM],25%,-5%,6%[15.4 µM]
TRPV1 PAM,-7,22,2,-5,-1,7,0,-2
Sfp inh,14%,-11%,79µM*,/,?,18%,/,2%
ClpP mod,0.1%,-0.3%,1.2%,-0.3%,-1.9%,-2.7%,-1.3%,-1.0%
CtBP-E1A blk,-2,/,2,1,-6,-1,0,-5
Menin-MLL FL inh,1.3,23,3.3,/,0.2,-1.6,/,5.2

Quoted at random: 2 compounds from above
#8 Nc1nn(-c2ccccc2)c2ccc([N+](=O)[O-])cc12
#4 O=C(CCC(=O)c1cccs1)NNC(=O)c1ccccc1Cl
Compound,8,4
gsp antag,-24%,8%
gsp agonist,6%[15.4 µM],34%
TRPV1 PAM,-2,-5
Sfp inh,2%,/
ClpP mod,-1.0%,-0.3%
CtBP-E1A blk,-5,1
Menin-MLL FL inh,5.2,/

(more compounds)
#9 CCn1c(C)nc2cc(C(=O)NNC(=S)NC(=O)c3ccccc3)ccc21
#10 CSc1nc2nccc(-c3ccc(-c4ccccc4)cc3)n2n1
#11 CN(C)S(=O)(=O)c1cccc(NC(=O)c2ccccc2OCc2ccc(F)cc2)c1
#12 Cc1cc2ncn(CCCCOc3ccccc3)c2cc1C
#13 C=CCN(C(=O)COC(=O)c1cc[n+]([O-])cc1)c1nc(-c2ccccc2)cs1
#14 COc1cc(C2C(C#N)=C(N)Oc3n[nH]c(-c4cccnc4)c32)ccc1OCC(N)=O (stereo not given)
#15 COc1cc(/C=N/n2cnnc2)ccc1Oc1nc(Cl)ncc1F
#16 NCCCCCc1nnc(SCC(N)=O)o1
Compound,9,10,11,12,13,14,15,16
gsp antag,0%,-23%,-1%,?,-11%,7%,14%,12%
gsp agonist,-1%,4%,-13%[15.4 µM],-45%[inhibitor],6%,21%,1%[15.4 µM],-18%[15.4 µM]
TRPV1 PAM,17,-3,6,-5,/,17,-3,-8
Sfp inh,18%,?,6%,-5%,/,13%,11%,3%
ClpP mod,-3.0%,28µM*,20µM*,1.5%&-0.4%,-0.7%,-2.6%,0.1%,-16%
CtBP-E1A blk,/,?,-14,1,/,-9,2,-10
Menin-MLL FL inh,-2.9,3.3,2.8,0.0,/,2.8,-5.6,1.5

#17 Cn1c(SCC(=O)N2CCCc3ccccc32)nc2ccccc2c1=O
#18 C=C1CCN([C@H](C(=O)OCc2ccc(C)cc2)C(C)C)S(=O)(=O)c2ccccc21
#19 COc1ccc(CN(Cc2ccc(C(=O)O)cc2)C(=S)Nc2ccccc2C)cc1OC
#20 CC1CCN(c2c(NCc3ccc(C(=O)N4CCN(C5CCCCC5)CC4)cc3)c(=O)c2=O)CC1
#21 Cc1ccc(NC(=O)CCCCCN2C(=O)c3ccccc3C2=O)nc1
#22 CCCn1c(/N=C/c2ccccc2O)nc2ccccc21
#23 O=C(CN1C(=O)c2ccccc2S1(=O)=O)c1ccccc1
#24 CCc1nnc(NC(=O)c2cc(C)nc3ccccc23)s1
Compound,17,18,19,20,21,22,23,24
gsp antag,?,-4%,-1%,1%,4%,-7%,3%,-5%
gsp agonist,-23%,-42%[inhibitor],-4%,24%,4%,-8%,-22%,-13%[15.4 µM]
TRPV1 PAM,?,22,7,-27,-12,7,2,23
Sfp inh,1%,-2%,-22%,-3%,14%,1%,-2%,15%
ClpP mod,-1.3%,0.1%,0.1%,1.0%,/,-1.1%,-0.7%,/
CtBP-E1A blk,-1,/,/,-3,0,3,5,-5
Menin-MLL FL inh,4.4,-0.3,0.8,2.5,3.3,4.6,-0.9,4.0

#25 COc1ccc(S(=O)(=O)N2CCN(c3ccccn3)CC2)cc1[N+](=O)[O-]
#26 O=c1[nH]c(CN2CCN(S(=O)(=O)c3ccccc3C(F)(F)F)CC2)nc2sc3c(c12)CCCC3
#27 CN(C)S(=O)(=O)c1cccc(NC(=S)N/N=C/C2CC=CCC2)c1 (stereo not given)
#28 N=C(N)SCCc1cccc(CCSC(=N)N)c1
#29 O=C1SCCC1NC(=O)C(c1ccccc1)c1ccccc1 (stereo not given)
#30 Cc1ccc(C)c(C(=O)c2ccccc2NC(=O)c2ccccn2)c1
#31 COC(=O)c1cc2sc(Cl)cc2n1CC(=O)Nc1cccc(SC)c1
#32 O=C(Nc1cccc(S(=O)(=O)N2CCCC2)c1)c1cccnc1
Compound,25,26,27,28,29,30,31,32
gsp antag,-4%,-20%,-33%,-1%,-8%,-9%,2%,3%
gsp agonist,10%,-6%[15.4 µM],?,/,-8%[15.4 µM],-9%,8%,?
TRPV1 PAM,-20,?,-7,/,-4,5,4,-4
Sfp inh,-10%,?,-21%,/,8%,?,9%,6%
ClpP mod,-1.1%,-14%,-1.1%,1.6%&-1.0%,/,/,-3.9%,-3.6%
CtBP-E1A blk,1,-1,4,-7,-1,6,-9,-5
Menin-MLL FL inh,1.6,15,1.1,8.0,-2.2,-5.1,-2.0,/

#33 O=C(c1ccco1)N1CCN(C(=O)c2ccc(Cn3cc(Br)cn3)o2)CC1
#34 N=c1c2c(n(Cc3ccc(Br)cc3)c3c1CCC3)CCCC2
#35 O=S(=O)(Nc1ccc(Cl)cc1)c1ccc(N2CCOCC2)c(NC(=S)NCCN2CCOCC2)c1
#36 CC1(C)CC(=O)C/C(=N\NC(=O)C2CC23CCC3)C1 (stereo not given)
#37 Cc1ccc2c(CN3CCC(C(N)=O)CC3)cc(=O)oc2c1C
#38 Cc1cc(C)nc(NC(=S)Nc2ccc(F)cc2F)c1
#39 O=C(Nc1ccc(Cl)cc1)C1CC=CCC1C(=O)OCC(F)(F)C(F)F (stereo not given)
#40 CCCCN(C(=O)C1CSC2(C)CCC(=O)N12)c1c(N)n(Cc2ccccc2)c(=O)[nH]c1=O (stereo not given)
Compound,33,34,35,36,37,38,39,40
gsp antag,-2%,12%,-11%,-12%,-8%,/,6%,5%
gsp agonist,-1%,13%,-18%[15.4 µM],-4%[15.4 µM],10%[15.4 µM],-5%[15.4 µM],1%,3%
TRPV1 PAM,11,-8,0,-5,6,-12,4,-5
Sfp inh,-1%,-2%,4µM*,10%,22%,5%,-2%,/
ClpP mod,-0.5%,0.3%,/,0.1%,/,/,-0.2%,1.9%
CtBP-E1A blk,4,-3,-14,9,-6,1,7,9
Menin-MLL FL inh,5.5,-0.9,-5.2,-5.8,0.6,-0.2,2.7,/

#41 O=C(NCc1ccc2c(c1)OCO2)C12CN(Cc3ccccc3)CC1C(c1cccc([N+](=O)[O-])c1)=NO2 (stereo not given)
#42 CCOc1ccc(Oc2ccc(S(=O)(=O)N3CCOCC3)cc2N)cc1
#43 Cc1ccccc1-c1nn(-c2ccc(F)cc2F)cc1CNCCCO
#44 Cc1ccc([C@H]2N[C@]3(CCCN(Cc4ccc(Br)cc4)C3=O)[C@H]3C(=O)N(Cc4ccccc4)C(=O)[C@@H]23)cc1
#45 CCCC(=O)N(c1ccc(F)cc1)C1C=CS(=O)(=O)C1 (stereo not given)
#46 Cc1noc(NS(=O)(=O)c2ccc(NC(=O)c3cnc4n(c3=O)CCS4)cc2)c1C
#47 CC(=O)Nc1ccc(NC(=O)C(Cc2ccccc2)NC(=O)C2CCCCC2)cc1 (stereo not given)
Compound,41,42,43,44,45,46,47
gsp antag,9%,2%,13%,/,-2%,7%,9%
gsp agonist,18%,0%,16%[15.4 µM],14%,-49%[inhibitor],25%,-20%
TRPV1 PAM,0,-2,-10,/,1,-1,9
Sfp inh,-18%,6%,17%,/,2%,-5%,18%
ClpP mod,-1.0%,-2.4%,/,-3.2%,-2.8%,0.0%,1.4%
CtBP-E1A blk,/,-1,1,-5,-10,2,-7
Menin-MLL FL inh,2.6,-3.0,1.5,/,1.7,5.3,-1.6

Compounds were not picked by outcome, and some 5.3% of all compounds hit somewhere here.
